# NPR1 antag – Natriuretic polypeptide receptor (hNpr1) antagonism - Primary qHTS. 76,000 tested, 1.6% active. AID 1347048, 2019. Potency, µM (highest dose often 46.3 µM), for the others: at the highest dose activity change, negative = inhibition, usual class: inhibitors. HEK293 hNpr1 GloSensor cGMP, ANP-stimulated luminescence. Atrial natriuretic peptide receptor 1 (Homo sapiens), P16066; active = well fitted inhibition curve with a large enough effect; inconclusive = small, poorly fitted or top-dose-only effect; inactive = no such curve, though single readings can be large or run the other way;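 also: nearly all actives have a fitted effect of over 60% in size; nearly all hits also lower the signal before the agonist is added; a reference antagonist and vehicle were the controls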
# Target sequence (P16066 whole entry, looked up): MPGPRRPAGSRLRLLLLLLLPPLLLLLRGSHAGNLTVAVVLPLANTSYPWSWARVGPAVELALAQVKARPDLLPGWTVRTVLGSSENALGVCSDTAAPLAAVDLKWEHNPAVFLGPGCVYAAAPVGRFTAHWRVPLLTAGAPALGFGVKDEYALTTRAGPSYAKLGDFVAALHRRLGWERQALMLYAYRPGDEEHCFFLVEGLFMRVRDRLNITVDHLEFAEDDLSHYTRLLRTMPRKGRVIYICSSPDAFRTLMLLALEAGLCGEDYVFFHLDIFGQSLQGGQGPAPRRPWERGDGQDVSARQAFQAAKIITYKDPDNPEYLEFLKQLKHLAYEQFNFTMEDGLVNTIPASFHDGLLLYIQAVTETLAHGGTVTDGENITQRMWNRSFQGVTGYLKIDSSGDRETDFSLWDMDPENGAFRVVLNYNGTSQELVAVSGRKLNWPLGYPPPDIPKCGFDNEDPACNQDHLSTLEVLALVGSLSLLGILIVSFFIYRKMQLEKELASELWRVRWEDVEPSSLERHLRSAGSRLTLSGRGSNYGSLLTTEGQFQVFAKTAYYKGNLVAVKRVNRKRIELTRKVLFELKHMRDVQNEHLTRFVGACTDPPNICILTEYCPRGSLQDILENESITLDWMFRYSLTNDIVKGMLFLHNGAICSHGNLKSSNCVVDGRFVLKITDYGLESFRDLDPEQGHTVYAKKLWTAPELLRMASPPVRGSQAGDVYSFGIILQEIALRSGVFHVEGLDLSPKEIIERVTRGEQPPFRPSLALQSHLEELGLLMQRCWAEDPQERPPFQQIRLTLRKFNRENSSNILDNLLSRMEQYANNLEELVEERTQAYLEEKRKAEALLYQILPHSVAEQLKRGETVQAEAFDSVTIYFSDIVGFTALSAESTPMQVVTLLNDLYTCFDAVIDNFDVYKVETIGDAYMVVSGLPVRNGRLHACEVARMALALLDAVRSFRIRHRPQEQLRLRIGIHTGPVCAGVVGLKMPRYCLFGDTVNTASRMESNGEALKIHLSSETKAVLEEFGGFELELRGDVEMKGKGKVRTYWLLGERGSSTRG
#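 Compound pre-incubated 30 min at room temperature on GloSensor-loaded HEK293 cells stably carrying hNpr1 and the pGS-40F cGMP biosensor. Stimulation uses hNppA at 0.1 nM final; luminescence is taken at baseline and 20 min post-agonist.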
# The depositor's hits bear a star; ? = inconclusive; [ ] = another dose, or the depositor's remark. % is scaled to controls: 0 for no effect and ±100 for the full control effect; potency is read from the fitted curve at half-maximal effect. An excerpt; the hit share may differ from the screen's.
SMILES,NPR1 antag
COCCOc1ccc2c(n1)CCN(C(=O)Cc1cccc(OC)c1)C2,-1%
COCc1nnc(NC(=O)C2c3ccccc3C(=O)N(CC(C)C)C23CCCC3)s1 (stereo not drawn),1%
Cc1cnccc1N1CCCN(Cc2cnc(-c3cccs3)nc2)CC1,0%
O=C1CCN(C(=O)c2cccc3[nH]ccc23)CCCC(C(=O)NCc2ccccc2)CCN1 (stereo not drawn),-4%
Cc1ccc(C(=O)N2CCCN(S(C)(=O)=O)c3ccccc32)s1,-5%
Cc1cnc(CC2CCN(S(=O)(=O)c3ccccc3)CC2)n1Cc1ccccc1,0%
O=c1[nH]c(N2CCOCC2)nc2c1CCN(Cc1ccc(F)c(Cl)c1)CC2,4%
CN1C(=O)CC(C(=O)O)C12CCN(C(=O)C1(c3ccccc3)CC1)CC2 (stereo not drawn),15%
O=S(=O)(c1ccccc1)N1CC(c2noc(C3CCCN3CC3CC3)n2)C1 (stereo not drawn),4%
COCCc1noc([C@@H]2CN(CC(C)C)C[C@H]2CO)n1,1%
COc1ccc(CN2C[C@H]3CN(Cc4ccc(Cl)cc4)CCN3C2=O)cc1,?
O=C(C[C@@H]1CCNC[C@@H]1Cc1cc(CN2CCCCC2)on1)N1CCN(c2ccccc2)CC1,1%
COc1ccc(C(=O)N2CCC(Cc3nncn3Cc3ccccc3)C2)cc1 (stereo not drawn),-4%
CCC(O)CNC(=O)c1cn2cc(-c3ccc(F)cc3)n(CC=C(C)C)c(=O)c2n1 (stereo not drawn),2%
CCO[C@H]1CN(C(=O)CCCc2nc(-c3ccccc3OC)no2)C[C@@H]1O,-1%
COc1cccc(Nc2ccc3c(n2)C(C)(C(=O)NCc2ccco2)CN(C)C3)c1 (stereo not drawn),-15%[70.6 µM]
NC(=O)c1noc(CN2CC[C@@H]3[C@@H](CCC(=O)N3CCc3ccccc3)C2)n1,5%
COc1cccc(CN2CCC3(Cc4ccccc4NC3=O)C2)c1 (stereo not drawn),-3%[70.6 µM]
N#CC1CCN(C(=O)c2nc(-c3cccc(C(F)(F)F)c3)c3cnccn23)CC1,-5%
Cc1nc(-c2ccc(F)cc2)n(CC(=O)NCc2ccc(F)cc2)c(=O)c1CCO,-2%
C[C@@H]1C(=O)O[C@H]2[C@H]1CC[C@@]1(C)Cc3sc(NC(=O)CS(=O)(=O)c4ccccc4)nc3[C@@H](C)[C@H]21,0%
CN(Cc1ccccc1)C(=O)C1(C)COCc2cnc(Nc3ccccc3)nc21 (stereo not drawn),-29%[70.6 µM]
Cc1cccc(CN(C(=O)c2ccco2)c2ccc(CC(=O)N3CCCC3)cc2)c1,-2%
O=C(NCc1nnc2cc(-c3nc(C4CC4)no3)ccn12)c1c(F)cccc1F,2%
CCC1CN(C(=O)c2ccc(NCc3cnn(CC)c3)nc2)CCN1C(C)C (stereo not drawn),-3%
COCCn1ncc(N2CCCC(CC(=O)NCc3cccc(C)c3)C2)cc1=O (stereo not drawn),-12%
CN(CC(=O)NCC1CCN(c2cnn(C)c(=O)c2)C1)C1CCNCC1 (stereo not drawn),-1%
O=C(c1ccncc1)N1CCC2(CC1)CC(N1CCCCC1)CCO2 (stereo not drawn),1%
COCCCNC(=O)C1CCCN(Cc2ccncc2)CCC(=O)NCC1 (stereo not drawn),0%
O=C(NCC1Cn2cccc2C(=O)N1Cc1ccccc1)C1CC1 (stereo not drawn),2%
Cc1ccc(-n2cccc2CC(=O)NCC(C)C)cc1,-14%
CC(C)S(=O)(=O)N1CCC(CCOc2ccccc2)C1 (stereo not drawn),-9%
COc1ccc(NC(=O)C2CCCN(c3cnc4nc(C)c(C)nc4c3)C2)c(C)c1 (stereo not drawn),-2%
NC(=O)COc1ccc(C(=O)N[C@@H]2CN(C(=O)Nc3cccc(C(F)(F)F)c3)CCC[C@H]2O)cc1,3%
CC(C)c1cc(C2CCCN2C(=O)CCc2cc3n(n2)CCCNC3)no1 (stereo not drawn),-1%
O=C(O)C[C@@H]1CCN(C(=O)C2CCCCC2)C[C@@H]1CCN1CCN(c2ccccn2)CC1,0%

# Already shown: entries from further up.
SMILES,NPR1 antag
COc1ccc(CN2C[C@H]3CN(Cc4ccc(Cl)cc4)CCN3C2=O)cc1,?
O=C(C[C@@H]1CCNC[C@@H]1Cc1cc(CN2CCCCC2)on1)N1CCN(c2ccccc2)CC1,1%
COc1ccc(C(=O)N2CCC(Cc3nncn3Cc3ccccc3)C2)cc1 (stereo not drawn),-4%
CCC(O)CNC(=O)c1cn2cc(-c3ccc(F)cc3)n(CC=C(C)C)c(=O)c2n1 (stereo not drawn),2%
CCO[C@H]1CN(C(=O)CCCc2nc(-c3ccccc3OC)no2)C[C@@H]1O,-1%
COc1cccc(Nc2ccc3c(n2)C(C)(C(=O)NCc2ccco2)CN(C)C3)c1 (stereo not drawn),-15%[70.6 µM]
NC(=O)c1noc(CN2CC[C@@H]3[C@@H](CCC(=O)N3CCc3ccccc3)C2)n1,5%
COc1cccc(CN2CCC3(Cc4ccccc4NC3=O)C2)c1 (stereo not drawn),-3%[70.6 µM]
N#CC1CCN(C(=O)c2nc(-c3cccc(C(F)(F)F)c3)c3cnccn23)CC1,-5%
Cc1nc(-c2ccc(F)cc2)n(CC(=O)NCc2ccc(F)cc2)c(=O)c1CCO,-2%
C[C@@H]1C(=O)O[C@H]2[C@H]1CC[C@@]1(C)Cc3sc(NC(=O)CS(=O)(=O)c4ccccc4)nc3[C@@H](C)[C@H]21,0%
CN(Cc1ccccc1)C(=O)C1(C)COCc2cnc(Nc3ccccc3)nc21 (stereo not drawn),-29%[70.6 µM]
Cc1cccc(CN(C(=O)c2ccco2)c2ccc(CC(=O)N3CCCC3)cc2)c1,-2%
O=C(NCc1nnc2cc(-c3nc(C4CC4)no3)ccn12)c1c(F)cccc1F,2%
CCC1CN(C(=O)c2ccc(NCc3cnn(CC)c3)nc2)CCN1C(C)C (stereo not drawn),-3%
COCCn1ncc(N2CCCC(CC(=O)NCc3cccc(C)c3)C2)cc1=O (stereo not drawn),-12%
CN(CC(=O)NCC1CCN(c2cnn(C)c(=O)c2)C1)C1CCNCC1 (stereo not drawn),-1%
O=C(c1ccncc1)N1CCC2(CC1)CC(N1CCCCC1)CCO2 (stereo not drawn),1%
COCCCNC(=O)C1CCCN(Cc2ccncc2)CCC(=O)NCC1 (stereo not drawn),0%
O=C(NCC1Cn2cccc2C(=O)N1Cc1ccccc1)C1CC1 (stereo not drawn),2%
Cc1ccc(-n2cccc2CC(=O)NCC(C)C)cc1,-14%
CC(C)S(=O)(=O)N1CCC(CCOc2ccccc2)C1 (stereo not drawn),-9%
COc1ccc(NC(=O)C2CCCN(c3cnc4nc(C)c(C)nc4c3)C2)c(C)c1 (stereo not drawn),-2%
NC(=O)COc1ccc(C(=O)N[C@@H]2CN(C(=O)Nc3cccc(C(F)(F)F)c3)CCC[C@H]2O)cc1,3%
CC(C)c1cc(C2CCCN2C(=O)CCc2cc3n(n2)CCCNC3)no1 (stereo not drawn),-1%
O=C(O)C[C@@H]1CCN(C(=O)C2CCCCC2)C[C@@H]1CCN1CCN(c2ccccn2)CC1,0%

# Further records:
SMILES,NPR1 antag
COc1ccccc1C(=O)NC1CCN(c2cc(C(F)(F)F)nc(C)n2)CC1,?
O=C(CSc1ccncc1)N1CCN2C(=O)N(Cc3ccccc3)C(=O)[C@H]2C1,-3%[70.6 µM]
CCN1c2cc(C(=O)NC3CCCCC3)ccc2C(=O)N2CCCCCC21 (stereo not drawn),1%
CCn1cc(Cl)c(C(=O)N2CCc3c(nc(-c4ccccc4)[nH]c3=O)C2)n1,-5%
Cc1[nH]c2ccccc2c1CC(=O)N1CC[C@@](O)(C2CCOCC2)[C@H](C)C1,-1%
Cc1noc(C2CC3(CCN(C(=O)c4nccn4C)CC3)CN2C)n1 (stereo not drawn),4%
CC1(c2ccccc2)N(Cc2ccc(O)cc2)C(=O)OC12CCN(C(=O)Cc1ccccc1)CC2 (stereo not drawn),1%
CNC(=O)c1ccc2ccnn2c1,-8%[70.6 µM]
O=C1CCN(S(=O)(=O)c2ccccc2)CCCN(C(=O)c2ccccn2)CCN1,2%
Cc1cc(C[C@@H]2COC[C@@H]2NC(=O)c2cc(=O)n(-c3ccccc3)[nH]2)on1,2%
COc1ccc(CN2Cc3[nH]nc(-c4cccc(OC)c4)c3CC2=O)cc1,-12%[70.6 µM]
COCc1nncn1C1CCN(C(=O)c2cc(F)ccc2Cl)CC1,-9%
COCCNC(=O)Cn1ccn2nc(-c3ccc(F)cc3)c(CO)c2c1=O,5%
COCC1CN(C(C)=O)CC12CCN(C(=O)c1cccnc1C)CC2 (stereo not drawn),5%
COCC1CN(C(C)=O)CC12CCN(Cc1sccc1C)CC2 (stereo not drawn),1%
CCCCN1C(=O)C2(CCN(C(=O)CC(C)(C)C)CC2)Nc2ccccc21,-4%
O=C(CCCc1ccc(F)cc1)N[C@@H]1CCOC[C@H]1Oc1ccccn1,9%
CN(Cc1cccnc1)c1nc2c(c(=O)[nH]1)CCN(Cc1ccncc1)CC2,-1%
CCC1(N2CCN(C(=O)c3ccc(C(F)(F)F)s3)CC2)CCN(C(=O)NC)C1 (stereo not drawn),-7%
CN(c1cc(=O)c2ccnc(Nc3ccc(F)c(Cl)c3)c2o1)C1CCOCC1,-12%[70.6 µM]
O=C(Cn1nc2c(cc1=O)CCCC2)Nc1nc(-c2ccc3c(c2)OCO3)cs1,2%
O=S(=O)(N[C@H]1CO[C@H]2[C@@H]1OC[C@@H]2Nc1nccc(C2CCCC2)n1)c1cccc2cccnc12,-10%
C#CCN(C)Cc1nc(C2(O)CCN(CC3CCCCC3)CC2)cs1,3%[70.6 µM]
O=C1OC[C@@H]2CCN(C3CCCC3)Cc3ccc(F)cc3N12,-3%[70.6 µM]

# Molecules above that contain a thiophene ring, fused or not, in the order listed:
SMILES,NPR1 antag
Cc1cnccc1N1CCCN(Cc2cnc(-c3cccs3)nc2)CC1,0%
Cc1ccc(C(=O)N2CCCN(S(C)(=O)=O)c3ccccc32)s1,-5%
COCC1CN(C(C)=O)CC12CCN(Cc1sccc1C)CC2 (stereo not drawn),1%
CCC1(N2CCN(C(=O)c3ccc(C(F)(F)F)s3)CC2)CCN(C(=O)NC)C1 (stereo not drawn),-7%

# Further compounds follow:
SMILES,NPR1 antag
CSc1ccccc1C(=O)N1CCOC(Cc2cccc(F)c2)C1 (stereo not drawn),2%
COCCN1C[C@H]2CN(C(=O)c3ccno3)CCN2C1=O,7%[70.6 µM]
CC(C)C[C@@H](NC(=O)C1=C[C@@H](NS(=O)(=O)c2cccc(C(F)(F)F)c2)[C@@H](O)[C@H](O)C1)C(N)=O,1%
Cc1[nH]ncc1CNC(=O)c1ccc(CC2CCN(S(C)(=O)=O)CC2)cc1,-21%
Cc1ccc(C(=O)N2CCC3(CC2)N=C(c2ccc(Br)cc2)NO3)cc1,16µM*
COCC1CCN(C(=O)CC(c2ccccc2)c2ccccc2C)CC1 (stereo not drawn),-2%
COCCn1c(=O)n([C@H]2CCCN(C(=O)C3CCCCC3)C2)c2ncccc21,-1%
CCCOc1ccc(CN2C[C@@H](CO)[C@H](c3ccccn3)C2)cc1,-12%
CCn1cc(S(=O)(=O)N2CCC3(CC2)CCC(O)(CN(C)C)CC3)cn1,14%
COc1ccccc1C(=O)NCc1nnc2cc(-c3nc(C(C)C)no3)ccn12,3%
COc1ccc(OC)c(NC(=O)c2c(OC)cc(=O)n3c2CCCC3)c1,-13%
COc1cc(CN2CCC(C)(c3noc(C4CCOCC4)n3)CC2)ccc1OC(C)C,0%
O=C1NCCCCCCN(S(=O)(=O)c2ccc3c(c2)OCCO3)[C@H]2CCCC[C@@H]12,-1%
Cc1nc(C)c(C(=O)N2CCC(C(=O)N3CCCCCCNC(=O)CC3)CC2)s1,3%
COc1ccc(Cl)cc1-c1ccc2c(c1)C(=O)N1CCN(C(C)=O)C[C@@H]1C(=O)N2,-1%[70.6 µM]
COc1ccccc1OCCNC(=O)CCC[C@@H]1[C@H]2CCCN3CCC[C@@H](CN1C(C)=O)[C@@H]23,0%
O=C1NC2(CCCCC2)C(=O)N1CC(=O)N1CCc2ccccc21,7%
O=C(Cc1ccccc1Br)N1CCN(c2cc(-c3cccs3)[nH]n2)CC1,-28%
O=C(NCCC1CCN(C(=O)Nc2ccccc2)CC1)c1cccs1,-2%
COC1CCC(C(=O)N2CCc3c(n(CCOc4ccccc4)n(-c4ccccc4)c3=O)C2)CC1 (stereo not drawn),1%
CCOCC(=O)N1CCC(N2C(=O)C3(CCCCC3)C2c2ccncc2)CC1 (stereo not drawn),6%
Cc1ccc(C(=O)N2CCCN(S(=O)(=O)c3ccccc3)CCC(=O)NCC2)s1,-1%
COc1ccc(-c2noc(CC3CCN(C(=O)c4cc(F)ccc4F)CC3)n2)cc1,7.1µM*
O=C1CCC2(C(=O)NCC3CC3)CCCC=C2N1c1ccccc1 (stereo not drawn),-18%
c1ccc(-n2cc(CN3CCCC3c3nc4ccccc4s3)nn2)cc1 (stereo not drawn),-26%
COc1ccc(-c2onc(C)c2C(=O)NCCc2ccc(F)cc2)cc1,-7%
O=C(NCc1cccc(F)c1)C1=NO[C@@H]2CN(Cc3ccc(F)cc3)C[C@H]12,3%[70.6 µM]
Cc1ccccc1CC(=O)N1CCN(c2cc(-c3cccs3)[nH]n2)CC1,0%
Cc1ccccc1NC(=O)c1cnc2c(c1)N(Cc1ccccc1)CCC2,0%[70.6 µM]
CC1(C(=O)NC2CC2)CCCc2cnc(Nc3cccnc3)nc21 (stereo not drawn),-1%[70.6 µM]
Cc1cc(C)c2c(C(=O)N3CCN(C)C4(CCN(C)CC4)C3)cc(C)nc2c1,9%
CSc1ccc(NC(=O)c2cc3c(s2)CN(C2CC2)C3)cc1,11µM*
Cc1noc(-c2nc(Cc3ccc(F)cc3)no2)n1,2%
CC(C)c1noc(-c2cn(C3CCCN(C(=O)c4cccc5[nH]ccc45)C3)nn2)n1 (stereo not drawn),13µM*
